RecA intein inh: blocks M. tuberculosis RecA intein splicing; 290,000 compounds, 0.75% hits; AID 2221; cell-free RecA intein splicing, fluorescence; inhibition, %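 (about 9 µM by stock and volumes)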; P9WHJ3; in the data active = inhibition above about 30%; inconclusive = no clear call, values can overlap the other calls;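 note: 0% = vehicle wells and 100% = reference inhibitor control wells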
Target sequence (P9WHJ3 whole entry, looked up): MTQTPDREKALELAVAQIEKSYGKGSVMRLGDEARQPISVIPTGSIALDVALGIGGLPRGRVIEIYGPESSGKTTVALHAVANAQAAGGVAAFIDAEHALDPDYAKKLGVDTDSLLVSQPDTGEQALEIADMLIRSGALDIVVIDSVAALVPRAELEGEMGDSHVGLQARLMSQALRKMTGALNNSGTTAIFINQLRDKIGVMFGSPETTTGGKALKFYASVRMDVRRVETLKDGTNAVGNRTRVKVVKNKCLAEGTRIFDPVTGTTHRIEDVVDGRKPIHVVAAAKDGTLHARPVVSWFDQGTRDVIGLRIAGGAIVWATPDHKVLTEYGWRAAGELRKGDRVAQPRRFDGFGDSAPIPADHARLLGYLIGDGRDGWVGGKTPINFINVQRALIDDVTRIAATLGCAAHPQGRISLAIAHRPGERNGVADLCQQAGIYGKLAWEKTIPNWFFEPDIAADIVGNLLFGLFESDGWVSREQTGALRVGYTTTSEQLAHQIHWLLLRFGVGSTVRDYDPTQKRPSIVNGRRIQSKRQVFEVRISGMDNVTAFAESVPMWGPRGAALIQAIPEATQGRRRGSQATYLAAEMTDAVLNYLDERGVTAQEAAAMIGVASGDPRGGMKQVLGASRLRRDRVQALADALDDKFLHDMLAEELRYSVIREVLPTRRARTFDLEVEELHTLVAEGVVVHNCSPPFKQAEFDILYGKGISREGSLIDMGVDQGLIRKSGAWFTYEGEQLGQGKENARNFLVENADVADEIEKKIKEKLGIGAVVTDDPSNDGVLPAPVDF
Mtb growth: M. tuberculosis H37Rv growth inhibitors, H37Rv strain (AID 1626); M. tuberculosis H37Rv growth inhibition; higher % means a stronger effect; one-dose inhibition, % at 10 µM; IC50 in µM for titrated hits; 220,000 compounds, 0.95% hits;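 active = confirmed in a dose series; inconclusive = inhibition above 80% but not taken into the dose series; inactive = below 80% or under 30% at every dose of the series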;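 note: bacteria incubated seven days before Alamar blue readout; 0% = bacteria only wells and 100% = bacteria with antibiotic wells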
YopH inh: blocks Yersinia enterocolitica YopH tyrosine phosphatase | fluorescence Ex485/Em525 | inhibition, %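 (about 10 µM by stock and volumes)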 | 140,000 compounds, 0.16% hits;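 active = inhibition of 50% or more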;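 note: controls were vehicle for no effect and minimum signal wells for full effect; inactives centre near -20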
Arbovirus anti: blocks arbovirus infection. 200,000 compounds, 0.37% hits. arbovirus infection cell-based antiviral screen. AID 1251. inhibition, % at 10 µM;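 active = inhibition from about 30%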;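 note: bluetongue infection of BSR cells; cell survival read as ATP light after 72 h; 0% = infected wells without compound and 100% = uninfected wells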
Mtb bLac sens: beta-lactam sensitization of Mtb H37Rv | M. tuberculosis H37Rv growth with meropenem, percent inhibition; hits of this screen are not shown here | inhibition, % at 25 µM | 330,000 compounds, 0.27% hits;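 active = about 74% or more and at least 40 points above the plate without the antibiotic, then above 30% in a dose series; inconclusive = first-round hits that could not be retested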;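 note: growth measured after seven days incubation then overnight dye step; 0% = bacteria only wells and 100% = bacteria with antibiotic; twin plates without the antibiotic show which effects depend on it; some results filed as inactive read as strong as hits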
* marks the source's active call; other numbers are inactive results; ? = inconclusive; / = no result given.

SMILES	RecA intein inh	Mtb growth	YopH inh	Arbovirus anti	Mtb bLac sens
COc1ccc(C2CC(C(F)(F)F)n3nc(C(=O)NCc4cn(C)nc4C)c(Cl)c3N2)cc1 (centres undefined)	/	-0.7%	-29.6	9.6	9.9
Cc1ccc(C23CC4CC(CC(C(=O)NC(C)C(N)=O)(C4)C2)C3)cc1 (centres undefined)	1.4	/	/	/	1.8
O=C(CCN1C(=O)/C(=C/c2ccco2)SC1=S)Nc1ccc(O)cc1C(=O)O	-3.1	/	/	/	9.4
CS(=O)(=O)N(CC(=O)NCC1CCCO1)c1ccc(F)c(Cl)c1 (centres undefined)	-0.9	2.7%	36.5	1.8	-12.5
Cc1cc(Nc2cccc(Cl)c2)nc(-c2ccccc2O)n1	0.0	/	/	/	5.7
O=C(CSc1nnc(-c2cccs2)n1-c1ccccc1)N1CCCC1	-3.3	0.4%	-41.2	3.3	-11.3
C=CCNC(=O)N1CCc2[nH]c3ccc(F)cc3c2C1	-8.2	/	/	/	2.6
CCOC(=O)C1CCCN(C(=O)CSCc2ccccc2)C1 (centres undefined)	0.1	-2.5%	-8.9	2.1	0.8
CC(C)CC(=O)Nc1cccc(-c2nc3ncccc3o2)c1	-0.3	/	/	/	-10.4
Cc1ccc(O)c(C(=O)c2cnc3c(c2)c(=O)n(C)c(=O)n3C)c1	1.2	6.4%	/	5.3	1.6
O=C(NCCCO)/C(=C\c1ccco1)NC(=O)c1ccc(Br)o1	-6.2	-1.1%	6.5	0.8	-2.8
Cc1cccc(-n2nnnc2SC(C)C(=O)NCCC2=CCCCC2)c1 (centres undefined)	/	-3.9%	-27.5	-22.3	-8.7
O=C(Cn1c(=O)n(-c2ccc(F)cc2)c(=O)c2sccc21)NC1CCCCC1	-3.2	-15.4%	/	-5.0	4.2
COc1ccccc1NS(=O)(=O)c1ccc(NC(=O)c2ccncc2)cc1	1.1	1.2%	/	18.3	-0.6
CCNC(=O)COC(=O)c1sccc1C	-10.4	-1.2%	/	2.1	-3.7
CCOC(=O)C1=C(C)NC(=O)NC1c1ccc(OCC(N)=O)cc1 (centres undefined)	0.6	-9.6%	-15.7	1.8	-6.3
CCc1ccc(N(C(=O)CCC(=O)Nc2cc(C)on2)C(C(=O)NC2CCCC2)c2ccco2)cc1 (centres undefined)	-0.6	1.6%	-7.0	-1.2	-5.7
CN(C)c1ccc(NC(=O)CN2CCN(c3ccc(F)cc3)CC2)cc1	-4.9	/	/	/	-0.2
COc1ccc(S(=O)(=O)NC(C)C(=O)NCc2ccccn2)cc1OC (centres undefined)	0.5	/	/	/	4.2
Cc1ccc(C(=O)NCC(C)NC(=O)c2ccc(C)c(C)c2)cc1C (centres undefined)	-0.3	/	/	/	1.9
O=C1N=C(N2CCOCC2)S/C1=C1\C(=O)N(Cc2ccccc2)c2ccccc21	/	-3.9%	-29.6	0.0	4.5
O=C1NC(=O)C(=Cc2ccc(OCC(=O)N3CCOCC3)cc2)C(=O)N1	21.0	-2.4%	10.0	4.1	-0.6
O=C(c1nc2ccccn2c1CNCCCn1ncc2ccccc21)N1CCCC1	-14.6	5.5%	/	0.6	-6.5
Cc1cccc(/C=N/n2c(-c3ccco3)n[nH]c2=S)c1	-2.4	2.1%	/	/	5.6
CN(C)c1ccc(CNS(=O)(=O)c2csc(C(N)=O)c2)cc1	-1.6	/	/	/	4.7
COc1cccc(C=Nc2cccc3c(=O)[nH][nH]c(=O)c23)c1O	-2.3	-0.4%	/	-5.1	-7.0
CCN1CCN(C(=O)C2CCC(CNS(=O)(=O)c3ccccc3)CC2)CC1 (centres undefined)	/	1.8%	-29.1	1.9	4.7
Fc1cccc(NC(=S)NCc2cccnc2)c1	-0.1	21.1%	-19.1	10.0	3.0
Fc1cccc(/C=N/Nc2ccc3ccccc3n2)c1	8.4	13.3%	/	7.9	66.1
O=C(N/N=C/c1ccc(OCc2ccccc2)cc1)c1cccs1	-0.4	-0.1%	-44.0	-5.8	10.0

Already shown: 2 of the compounds above.
SMILES	RecA intein inh	Mtb growth	YopH inh	Arbovirus anti	Mtb bLac sens
COc1ccc(C2CC(C(F)(F)F)n3nc(C(=O)NCc4cn(C)nc4C)c(Cl)c3N2)cc1 (centres undefined)	/	-0.7%	-29.6	9.6	9.9
Cc1ccc(C23CC4CC(CC(C(=O)NC(C)C(N)=O)(C4)C2)C3)cc1 (centres undefined)	1.4	/	/	/	1.8

The results go on.
SMILES	RecA intein inh	Mtb growth	YopH inh	Arbovirus anti	Mtb bLac sens
N#CC1=C(N)Oc2n[nH]c(-c3cccs3)c2C1c1ccccc1C(=O)O (centres undefined)	76.1*	3.7%	/	5.7	-6.2
CC(C)Cn1c(-c2ccc(F)cc2)n[nH]c1=S	-0.6	-6.6%	-233.5	-2.0	-1.6
O=S(=O)(NCC1CCCO1)c1ccc(Oc2ccccc2)cc1 (centres undefined)	-0.1	10.9%	-14.1	-4.0	-15.7
O=C(/C=C/NCC(=O)c1ccccc1)c1ccc(Br)cc1	4.0	11.6%	-24.6	1.8	30.1
CN(C)N=Nc1ccc(-c2cn(Cc3ccccc3)cn2)cc1	-1.2	/	/	/	6.4
C/C(=N\NC(=O)CN(c1ccc(C)cc1)S(C)(=O)=O)c1cccs1	0.4	-6.8%	-46.7	-2.1	3.9
O=C(CCc1nc2ccccc2c(=O)[nH]1)N1CCN(c2ccc(F)cc2)CC1	-2.1	-1.2%	/	1.5	-6.0
CCCc1nnc(NC(=O)CCC(=O)NCc2ccc(OC)cc2)s1	-2.5	0.6%	/	/	-1.8
Cc1nc2ccc(C(=O)OCc3ccccc3Br)cc2nc1C	1.1	?	-31.4	0.5	96.7
COc1ccc(Br)cc1CN1CCCC(C(=O)N2CCCCCC2)C1 (centres undefined)	0.8	-4.5%	-33.2	10.5	4.9
COc1c(Br)cc2c(C)c(C(=O)O)oc2c1Br	1.3	-8.5%	-28.4	3.4	-7.5
O=C(NCc1ccc(F)cc1)C1CCN(S(=O)(=O)c2cccnc2)CC1	3.3	/	/	/	-0.6
NC(=O)C1=C[C@@H](c2ccccc2)C[C@@H](OCCCCO)O1	-0.8	-5.2%	/	/	-2.0
Cc1nn2c(CN(C(=O)COc3ccccc3)c3ccccc3)nnc2c2ccccc12	-4.5	0.8%	-35.4	5.0	-6.7
Cc1ccc2c(c1)N(CCC(=O)N1CCC3(CC1)OCCO3)C(=O)C(C)O2 (centres undefined)	/	1.1%	-38.4	5.3	/
CN(C)Cc1nc2ccccc2c(=O)n1CC(=O)Nc1cccc(S(=O)(=O)N2CCOCC2)c1	-0.5	-6.0%	/	1.0	0.8
C=CCn1c(SCC(N)=O)nnc1-c1cccc(Br)c1	3.1	-10.5%	-50.7	5.9	3.3
c1ccc2c(c1)oc1c(Nc3ccc4c(c3)OCO4)ncnc12	-1.9	-5.6%	-20.9	-15.5	0.1
Cc1cnc(NC(=O)c2ccncc2)s1	-2.0	-1.4%	/	-1.5	-5.3
COc1ccc(CC(=O)Nc2nc(-c3ccc(F)c(F)c3)cs2)cc1	1.0	/	/	/	9.0
Cc1ccc(S(=O)(=O)Oc2ccccc2/C=N/NC(=O)c2nn(C)cc2[N+](=O)[O-])cc1	-2.0	7.8%	-20.8	10.2	-0.9
O=C1CCCc2c1cc(C(=O)NCc1ccco1)c(=O)n2-c1ccccc1	/	-8.9%	-19.9	3.6	-2.0
COc1ccc(S(=O)(=O)N(C)Cc2cccs2)cc1Br	4.6	-3.7%	3.5	3.2	2.2
COc1ccc(Br)cc1S(=O)(=O)n1nc(C)cc1C	-2.1	/	/	/	-6.1
C=CCN1C(=O)CC(C(=O)NC)SC1=Nc1ccc(C(=O)OCC)cc1 (centres undefined)	-0.6	2.9%	-9.3	-0.8	-6.6
COc1cccc(C2CC(=O)Nc3cc4c(cc32)CCC4)c1 (centres undefined)	5.1	9.3%	/	-12.7	3.7
CCOC(=O)c1c(C)n(O)c2ccc(Cl)cc2c1=O	-6.5	-4.7%	-45.2	0.2	16.9
c1nc(NCCN2CCOCC2)c2c3c(sc2n1)CCCCC3	6.3	3.5%	1.0	9.2	/
COC(=O)c1ccccc1NC(=O)c1noc2c1CC(C(C)(C)C)CC2 (centres undefined)	0.7	-4.7%	-29.4	6.8	?
COc1cccc(NC(=O)CSc2nc3ccccc3cc2Cc2ccccc2)c1	-0.9	13.6%	-30.1	-1.5	-0.9
COc1ccccc1N1CCN(C2CCN(C(=O)c3cccs3)CC2)CC1	-0.5	-2.1%	-22.4	4.2	2.0
CS(=O)(=O)Oc1ccc(/C=N/NC(=O)c2ccncc2)cc1	-1.2	?	-31.0	4.1	97.6
CC(=NCc1ccncc1)C1=C(O)c2ccccc2C1=O	/	0.1%	-6.9	-3.8	/
CC(C)CC(O)(CC(C)C)C(=O)NNc1ccccc1	0.3	?	-14.1	-33.3	97.5
CCCn1c(N2CCN(CC(=O)c3c(C)n(C)c4ccccc34)CC2)nc2c1c(=O)[nH]c(=O)n2C	-2.0	7.3%	-12.6	-3.0	-6.1
COc1cc(CO)cc(Br)c1OCC(=O)Nc1cccc2ccccc12	1.9	-2.3%	/	-7.9	40.1
COc1ccc(OC)c(-n2nnnc2SCC(=O)Nc2ccccc2N2CCOCC2)c1	/	-8.1%	/	2.5	2.5
COc1ccc(S(=O)(=O)N(CC(=O)NCc2cccnc2)Cc2ccccc2)cc1	-3.9	-3.6%	/	-0.1	-0.3
O=C(Nc1ccccc1Sc1ccccc1)c1ccccc1	/	4.4%	17.9	5.8	6.0
C=CCn1c(SCc2ccccc2C#N)nnc1-c1cc(Br)ccc1O	7.9	2.8%	4.9	14.9	-15.3
O=C(CSc1nnnn1-c1ccccc1)N1CCc2ccccc2C1	4.1	3.4%	-11.5	-14.3	-8.5
O=C(COc1ccccc1Cl)Nc1ccccc1C(=O)Nc1cccc(C(=O)O)c1	1.5	/	/	/	6.8
COc1ccc(N2C(=O)C3CCCN3C2c2cccc(C)c2)cc1Cl (centres undefined)	-0.6	-7.4%	-35.0	-11.8	8.2
O=C(NCc1cccnc1)C1CCN(c2ccc(S(=O)(=O)N3CCOCC3)cc2Cl)CC1	-1.1	-4.5%	/	-14.9	-13.3
C/C(CC(=O)Nc1ccc(Cl)cc1C(F)(F)F)=N\NC(N)=S	-0.7	/	/	/	98.9

Some values from the list.
c1nc(NCCN2CCOCC2)c2c3c(sc2n1)CCCCC3 in RecA intein inh is entered as 6.3
COc1cccc(C=Nc2cccc3c(=O)[nH][nH]c(=O)c23)c1O in Mtb bLac sens is entered as -7.0
CN(C)Cc1nc2ccccc2c(=O)n1CC(=O)Nc1cccc(S(=O)(=O)N2CCOCC2)c1 in Arbovirus anti is entered as 1.0
Cc1nn2c(CN(C(=O)COc3ccccc3)c3ccccc3)nnc2c2ccccc12 in RecA intein inh is entered as -4.5
COc1ccc(S(=O)(=O)NC(C)C(=O)NCc2ccccn2)cc1OC (centres undefined) in Mtb bLac sens is entered as 4.2

(more compounds)
SMILES	RecA intein inh	Mtb growth	YopH inh	Arbovirus anti	Mtb bLac sens
CC1=C(C#N)C(=O)N(C2CCS(=O)(=O)C2)C(=O)/C1=C\c1ccc(C)o1 (centres undefined)	-6.7	-4.2%	/	/	1.9
O=C(Nc1ccccn1)NC1CCCCC1	1.4	-1.8%	-17.7	-7.2	-2.9
O=C(COc1ccccc1Cl)NCCCNC(=O)c1cccnc1	-0.4	/	/	/	-5.7
c1ccc(-c2nc(CSc3n[nH]c(-c4cccs4)n3)cs2)cc1	8.1	-2.1%	-42.0	4.9	/
CN(C)C1=NCC(CSC(=N)N)S1 (centres undefined)	-5.1	-2.5%	/	-10.5	5.9
CC(c1ccccc1C(O)(c1ccccc1)c1ccccc1)N(C)C (centres undefined)	-1.5	12.7%	-15.8	-13.4	-6.4
CCOc1ccc(-c2noc(COC)n2)cc1OC	0.9	3.0%	0.0	-0.3	2.0
CC(C)CC1=NC(C(F)(F)F)(C(F)(F)F)c2c(n(CC(C)C)c(=O)[nH]c2=O)N1	-1.2	-3.5%	-19.4	-5.0	3.2
N#Cc1ccc(N/N=C/c2ccccc2)c([N+](=O)[O-])c1	-3.9	6.9%	/	-13.8	-10.4
CN(C)S(=O)(=O)c1cccc(NC(=O)c2cc(-c3cccs3)nn2-c2ccccc2)c1	-2.2	-1.4%	-19.7	-9.3	2.0
COc1ccc(NC(=O)c2ccc(CNc3c(NC4CCCCC4)c(=O)c3=O)cc2)cc1OC	3.2	7.2%	-30.5	-9.2	1.3
Cn1cnnc1SCC(=O)Nc1ccccc1C(=O)NC1CCCC1	-2.3	-8.0%	-0.4	1.1	-4.5
CN(C)c1cc[n+](CC(=O)Nc2ccc(Oc3ccccc3)cc2)cc1	-0.8	0.7%	/	-2.9	-1.6

Assay outcomes as filed in PubChem.

The list is partial (hit frequency here may not be typical).
